FGF22 binding = binders of human FGF22 protein, primary screen, FGF22 synaptogenesis inhibitor project, biophysical, thermal shift, single point; calls only at 9.99 µM; recombinant FGF22 thermal shift, SYPRO orange fluorescence; percent of sucrose octasulfate shift, DMSO zero; AID 651658, 2012; 340,000 tested, 1.5% active;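 active = melting point raised past a set limit in the mean and every replicate; three in four hits are not shown here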
Target sequence (Q9HCT0 whole entry, looked up): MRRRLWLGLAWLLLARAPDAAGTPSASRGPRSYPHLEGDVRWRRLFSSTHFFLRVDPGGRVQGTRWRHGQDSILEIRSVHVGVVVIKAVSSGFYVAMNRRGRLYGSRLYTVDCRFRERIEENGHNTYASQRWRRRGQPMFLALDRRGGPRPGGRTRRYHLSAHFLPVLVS
HNF4A DNA FP = change in binding of human HNF4A to DNA, primary screen, biochemical, fluorescence polarization, FITC-DNA; 1 h; AID 1224865, 2016; activity change, % at 10 µM; 360,000 tested, 0.3% active; in the data active = activity change above about 30%, passing the limit was not always enough;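 note: controls were the assay level and a saturating level of protein; the project sought stronger binding though the title names inhibitors; some compounds called inactive have numbers as strong as hits; positive values seem to mean higher polarization but the record does not say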
Target sequence (P41235 whole entry, looked up): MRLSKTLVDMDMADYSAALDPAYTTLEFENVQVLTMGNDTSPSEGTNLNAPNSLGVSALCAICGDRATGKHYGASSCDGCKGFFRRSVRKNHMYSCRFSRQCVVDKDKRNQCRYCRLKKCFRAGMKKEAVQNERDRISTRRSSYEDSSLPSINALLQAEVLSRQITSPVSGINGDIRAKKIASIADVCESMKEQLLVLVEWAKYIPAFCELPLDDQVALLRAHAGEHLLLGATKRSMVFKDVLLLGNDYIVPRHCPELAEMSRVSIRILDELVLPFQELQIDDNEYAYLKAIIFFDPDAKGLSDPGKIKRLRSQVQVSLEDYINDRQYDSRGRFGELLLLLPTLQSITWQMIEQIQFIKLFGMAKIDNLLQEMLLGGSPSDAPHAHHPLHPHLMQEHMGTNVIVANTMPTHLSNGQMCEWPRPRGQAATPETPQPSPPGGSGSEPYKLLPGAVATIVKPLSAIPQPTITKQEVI
UCH37 inh = inhibitors of human UCH37 deubiquitinase, primary screen, biochemical, Ub-AMC cleavage, fluorescence | Ubiquitin carboxyl-terminal hydrolase isozyme L5 (Homo sapiens), Q9Y5K5 | purified proteasome/UCH37 | inhibition, % (test concentration not listed) | 330,000 tested, 0.33% active | AID 588478, 2011;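 active = mean of two replicates above 20%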;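 note: 0% = compound-free wells with enzyme and 100% = wells lacking proteasome; stock transfer was 100 nL into about 20 µL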
Target sequence (Q9Y5K5 whole entry, looked up): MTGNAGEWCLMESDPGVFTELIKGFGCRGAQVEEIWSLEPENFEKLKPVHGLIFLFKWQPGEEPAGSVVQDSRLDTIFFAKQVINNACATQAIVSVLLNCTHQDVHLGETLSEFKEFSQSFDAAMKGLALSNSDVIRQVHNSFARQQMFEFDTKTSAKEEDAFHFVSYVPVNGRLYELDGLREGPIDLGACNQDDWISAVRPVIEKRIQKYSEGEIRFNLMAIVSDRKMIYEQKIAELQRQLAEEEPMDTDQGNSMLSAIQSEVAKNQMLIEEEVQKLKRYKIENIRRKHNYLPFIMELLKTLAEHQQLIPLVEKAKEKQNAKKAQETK
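Assay system: Proteasome-bound UCH37. Buffer or medium: pH 7.4 Tris-HCl (50 mM) with ovalbumin, ATP-MgCl2, DTT. Incubation: 30 min preincubation with enzyme, 25 min cleavage at room temperature. Measured by: fluorescence, ex 355 nm, em 460 nm. Read-out basis: percent inhibition. Control set: wells without proteasome as full block, compound-free enzyme plus substrate as uninhibited.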
* = called active by the depositor; i = inactive; nt = not tested or not shown. Some of the compounds tested; the hit share may differ from the screen's.

The first eleven entries as a preview:
SMILES | FGF22 binding | HNF4A DNA FP | UCH37 inh
C#CCOCCOCCOCCNc1nc(N2CCN(C(=O)CCCCCCCCCCNC(=O)[C@H](CCCCN)n3cc(CCO)nn3)CC2)nc(N2CCN(C(=O)CCCCCCCCCCNC(=O)[C@@H]([C@H](C)O)n3cc(C)nn3)CC2)n1 | nt | 30 | 3.0
COc1ccc2c(c1)OC[C@H]1[C@H]2N2C(=O)c3cc(Cl)ccc3NC(=O)[C@@]2(C)[C@H]1c1ccccc1 | nt | -0.1 | 1.9
C#CCOCCOCCOCCNc1nc(N2CCN(C(=O)Cn3cc(CCCCN)nn3)CC2)nc(N2CCN(C(=O)[C@H](C)n3cc(CCC(=O)O)nn3)CC2)n1 | nt | 1.9 | 1.6
O=C(C[C@H]1C/C=C\C[C@@H](Cc2ccc(F)cc2)C(=O)O[C@H](c2ccccc2)CNC1=O)N[C@@H](CO)Cc1ccccc1 | nt | -4.3 | 0.5
O=C(NCc1cccc(C(F)(F)F)c1)c1cccc2c1C(=O)c1ccc(N3CCC(Cc4ccccc4)CC3)cc1S2(=O)=O | nt | -19 | -3.0
CN(C)C1CCN(Cc2cc(COCc3ccccc3)c3cccnc3c2O)C1 (stereo not given) | nt | -0.9 | 1.0
COc1ccc2c(c1)[C@@H]1[C@H](CO2)[C@H](c2ccccc2)[C@]2(C)C(=O)Nc3ccc(C)cc3C(=O)N12 | nt | 2.1 | 3.4
CCN1C(N(C)CCc2c[nH]c3ccccc23)=N[C@@H](c2cccc(C(F)(F)F)c2)C(C(=O)OC)=C1C | nt | 2.8 | 3.5
C#CCOCCOCCOCCNc1nc(N2CCN(C(=O)CCCCCCCCCCNC(=O)Cn3cc(CCCCCN)nn3)CC2)nc(N2CCN(C(=O)CCCCCCCCCCNC(=O)[C@H]([C@@H](C)CC)n3cc(CCCCN=C(N)N)nn3)CC2)n1 | nt | 117 | 14
COc1ccc2c(c1)[C@H]1[C@H](CO2)[C@H](c2ccccc2)[C@]2(C)C(=O)Nc3cc(Cl)ccc3C(=O)N12 | nt | 0.2 | 4.7
COc1ccc(CNc2nc(NCc3ccc(OC)cc3)c3ncn(C4CCCC4)c3n2)cc1 | nt | 5.7 | 1.2

All compounds of this part (from the top)
SMILES | FGF22 binding | HNF4A DNA FP | UCH37 inh
C#CCOCCOCCOCCNc1nc(N2CCN(C(=O)CCCCCCCCCCNC(=O)[C@H](CCCCN)n3cc(CCO)nn3)CC2)nc(N2CCN(C(=O)CCCCCCCCCCNC(=O)[C@@H]([C@H](C)O)n3cc(C)nn3)CC2)n1 | nt | 30 | 3.0
COc1ccc2c(c1)OC[C@H]1[C@H]2N2C(=O)c3cc(Cl)ccc3NC(=O)[C@@]2(C)[C@H]1c1ccccc1 | nt | -0.1 | 1.9
C#CCOCCOCCOCCNc1nc(N2CCN(C(=O)Cn3cc(CCCCN)nn3)CC2)nc(N2CCN(C(=O)[C@H](C)n3cc(CCC(=O)O)nn3)CC2)n1 | nt | 1.9 | 1.6
O=C(C[C@H]1C/C=C\C[C@@H](Cc2ccc(F)cc2)C(=O)O[C@H](c2ccccc2)CNC1=O)N[C@@H](CO)Cc1ccccc1 | nt | -4.3 | 0.5
O=C(NCc1cccc(C(F)(F)F)c1)c1cccc2c1C(=O)c1ccc(N3CCC(Cc4ccccc4)CC3)cc1S2(=O)=O | nt | -19 | -3.0
CN(C)C1CCN(Cc2cc(COCc3ccccc3)c3cccnc3c2O)C1 (stereo not given) | nt | -0.9 | 1.0
COc1ccc2c(c1)[C@@H]1[C@H](CO2)[C@H](c2ccccc2)[C@]2(C)C(=O)Nc3ccc(C)cc3C(=O)N12 | nt | 2.1 | 3.4
CCN1C(N(C)CCc2c[nH]c3ccccc23)=N[C@@H](c2cccc(C(F)(F)F)c2)C(C(=O)OC)=C1C | nt | 2.8 | 3.5
C#CCOCCOCCOCCNc1nc(N2CCN(C(=O)CCCCCCCCCCNC(=O)Cn3cc(CCCCCN)nn3)CC2)nc(N2CCN(C(=O)CCCCCCCCCCNC(=O)[C@H]([C@@H](C)CC)n3cc(CCCCN=C(N)N)nn3)CC2)n1 | nt | 117 | 14
COc1ccc2c(c1)[C@H]1[C@H](CO2)[C@H](c2ccccc2)[C@]2(C)C(=O)Nc3cc(Cl)ccc3C(=O)N12 | nt | 0.2 | 4.7
COc1ccc(CNc2nc(NCc3ccc(OC)cc3)c3ncn(C4CCCC4)c3n2)cc1 | nt | 5.7 | 1.2
CCOC(=O)N1CCC(=NNC(=O)c2ccccc2F)CC1 | nt | 3.9 | 2.0

Another view of some results above:
mol	FGF22 binding	HNF4A DNA FP	UCH37 inh
COc1ccc(CNc2nc(NCc3ccc(OC)cc3)c3ncn(C4CCCC4)c3n2)cc1	nt	5.7	1.2
CCOC(=O)N1CCC(=NNC(=O)c2ccccc2F)CC1	nt	3.9	2.0

The results go on.
SMILES | FGF22 binding | HNF4A DNA FP | UCH37 inh
CCCCC(CC)CN=C(N)NC(N)=NCCCCCCN=C(N)NC(N)=NCC(CC)CCCC (stereo not given) | nt | 98* | 9.2
CCSc1ccc([C@@H]2[C@H]3C(=O)N(CC)C(=O)[C@H]3[C@]3(C(=O)OC)CCCCN23)cc1OC | nt | -1.0 | 5.8
O=C(C[C@H]1C/C=C\C[C@H](NC(=O)OCC2c3ccccc3-c3ccccc32)C(=O)OC[C@H](Cc2ccccc2)NC1=O)N[C@H](CO)Cc1ccccc1 | nt | -0.1 | 2.9
C[C@@H]1COC(=O)[C@H](NC(=O)OCC2c3ccccc3-c3ccccc32)C/C=C\C[C@@H](CC(=O)N(CCO)Cc2ccccc2)C(=O)N1 | nt | 5.7 | 0.3
Cc1nc(SCc2nc3c([N+](=O)[O-])cccc3[nH]2)c2oc3ccccc3c2n1 | nt | 4.2 | 0.5
CC(C)C[C@@H]1CN=C(N)N1C[C@@H]1CCCN1C[C@H](C)N1C[C@@H](Cc2ccccc2)N(CCc2ccc(Cl)c(Cl)c2)C1=N | nt | -0.4 | -2.0
CCCCNc1c(-c2ccc(SC(C)CC)cc2)nc2cnccn12 (stereo not given) | nt | -7.7 | -126
COC(=O)C1=C(C)N(Cc2ccccc2)C(=NCCc2c[nH]c3ccccc23)N[C@H]1c1ccccc1 | nt | 18 | 4.0
CC(=O)Nc1cccc(-c2cnc(N)c(C(=O)c3cccnc3)n2)c1 | nt | -1.1 | 0.6
CCN1C(=O)[C@H]2[C@@H](c3ccc(-c4ccc(C(C)=O)cc4)cc3)N[C@@](C)(C(=O)OC)[C@H]2C1=O | nt | 3.0 | 0.3
CCN1C[C@@H]2[C@@H]3C(=O)N(Cc4ccccc4)C(=O)[C@@H]3[C@](Cc3ccccc3)(C1=O)N2C(=O)c1ccccc1 | nt | -2.1 | 4.3
C#CCOCCOCCOCCNc1nc(N2CCN(C(=O)Cn3cc(CCO)nn3)CC2)nc(N2CCN(C(=O)[C@H]([C@@H](C)CC)n3cc(CCCN=C(N)N)nn3)CC2)n1 | nt | 2.0 | 2.1
CC(=O)Nc1cccc(-c2nc3ccccc3n2C(C(=O)NC(C)(C)C)C2CC2)c1 (stereo not given) | i | 0.7 | nt
COC(=O)[C@@]12C[C@@H](CC(=O)NCc3cccc(C(F)(F)F)c3)C(=O)N(Cc3ccco3)C1=CCC(C)(C)C2 | i | 3.6 | nt
CC1(C(=O)Nc2ccc3c(c2)OCCO3)CSCC(=O)N1C1CCN(Cc2ccccc2)CC1 (stereo not given) | i | 0.1 | nt
Cc1cnc(-c2nc3ccccc3n2C(C(=O)NC(C)(C)C)c2ccncc2)cn1 (stereo not given) | i | -0.8 | nt
CC(C)CCN1C(=O)CSCC1(C)C(=O)Nc1ccc2c(c1)OCCO2 (stereo not given) | i | 2.9 | nt
COc1ccc(NC(=O)C(c2cc3ccccc3o2)n2c(=O)c(-c3cc4ccccc4[nH]3)nc3ccccc32)cc1 (stereo not given) | i | 5.5 | nt
CCN(Cc1ccccc1)c1ccccc1 | i | -3.8 | nt
CCCCOCCCNC(=O)C[C@@H]1C[C@@]2(C(=O)OCC)CCCC=C2N(CCc2ccc(OC)c(OC)c2)C1=O | i | -1.5 | nt
CCC(C)CN1C(=O)CSCC1(C)C(=O)Nc1ccc2c(c1)OCCO2 (stereo not given) | i | -0.7 | nt
COc1ccccc1-c1sc2ccccc2c1C#CC1(O)CCCCC1 | i | -4.1 | nt
Cc1cc(Br)c2c(c1)[C@](O)(c1cn(C)c3ccccc13)C(=O)N2C | i | 2.4 | nt
CC(C)OC1=CC(=O)OC(c2cccc(Cl)c2)C1 (stereo not given) | i | -1.1 | nt
CC(C(=O)NCc1ccccc1)n1c(CSCCOc2ccccc2)nc2ccccc21 (stereo not given) | i | -2.5 | nt
Cc1cccc(C)c1NC(=O)C1(C)CSCC(=O)N1CCCn1ccnc1 (stereo not given) | i | 0.9 | nt
CSCCC(c1nc2ccccc2[nH]1)n1c(-c2ccc3ncccc3c2)nc2ccccc21 (stereo not given) | i | 0.2 | nt
Cc1ccc(S(=O)(=O)N2[C@@H](CO)CO[C@H]2CC(=O)c2cccc3ccccc23)cc1 | i | -1.9 | nt
Cc1cccc(C)c1NC(=O)C1C(c2ccc3c(c2)OCO3)=Nc2ccccc2N1C(=O)c1ccccc1 (stereo not given) | i | 9.7 | nt
CC(=O)C[C@H]1SC[C@@H](C(C)C)N1S(=O)(=O)c1ccc(C)cc1 | i | 0.0 | nt
COC(=O)CC1N(S(=O)(=O)c2ccc(C)cc2)c2ccccc2C1(C(=O)OC)C(=O)OC (stereo not given) | i | 2.5 | nt
Cc1cccc(C)c1NC(=O)C1(C)CSCC(=O)N1CCCN1CCOCC1 (stereo not given) | i | -0.5 | nt
O=C(NCc1ccccc1)C(c1ccco1)N1CCN(c2ccccc2F)CC1 (stereo not given) | i | -1.9 | nt
O=C1Nc2ccccc2-n2nnnc2C1N1CCN(c2cccc(C(F)(F)F)n2)CC1 (stereo not given) | i | -0.4 | nt
CC(C)(C)c1ccc(O)c(O)c1 | i | -3.8 | nt
CC(C)N1C(=O)c2ccccc2NC(=O)C1C(=O)NCc1cccc(C(F)(F)F)c1 (stereo not given) | i | -1.5 | nt
O=C(Nc1ccc(F)cc1)C(c1cc2ccccc2o1)N1CCN(CC(=O)N2CCCC2)CC1 (stereo not given) | i | -1.7 | nt
CCCCNC(=O)C(NC(=O)c1ccc2ccccc2c1)C(=O)c1ccccc1 (stereo not given) | i | 2.4 | nt
COC(=O)C1=CN(c2ccc(C(C)(C)C)cc2)C(N)=C(C#N)C1c1cccc([N+](=O)[O-])c1 (stereo not given) | i | 2.7 | nt
CCc1c(-c2ccc(Br)cc2)ncn1Cc1cccc(-c2ccccc2)c1 | i | 4.2 | nt
CCCCNC(=O)c1nc(-c2cccc(C(F)(F)F)c2)oc1-c1ccc(OC(F)(F)F)cc1 | i | -6.7 | nt
Cc1ccc(S(=O)(=O)N[C@H]2CCC[C@@H]2O)cc1 | i | 1.1 | nt
CC(C)CCN1C(=O)CSCC1(C)C(=O)NCc1ccccc1 (stereo not given) | i | 2.5 | nt
CCCCNC(=O)C[C@@H]1C[C@@]2(C(=O)OCC)CCCC=C2N(CCC2=CCCCC2)C1=O | i | 4.2 | nt
Cc1cc2c(cc1C)-n1nnnc1C(N1CCN(c3ncccc3C#N)CC1)C(=O)N2 (stereo not given) | i | 0.0 | nt
CC1(C(=O)NCc2ccccc2)CN(S(C)(=O)=O)CC(=O)N1Cc1cccc(F)c1 (stereo not given) | i | 0.7 | nt
COC(=O)C[C@H]1CC[C@@H](NC(=O)Nc2c(C)noc2C)[C@@H](CO)O1 | i | 0.4 | nt
O=C(/C=C1\OCc2ccccc21)OCc1ccccc1 | i | -2.7 | nt
O=C(NC1CCCC1)C1C(c2ccc(C(F)(F)F)cc2)=Nc2ccccc2N1C(=O)c1ccco1 (stereo not given) | i | -4.4 | nt
CCOc1ccc(/C=N/NC(=O)c2ccc(F)cc2)cc1CN1CC2CC(C1)c1cccc(=O)n1C2 (stereo not given) | i | -0.5 | nt
CCCCCCCCN1C(=O)[C@H](CC(=O)NCCCCc2ccccc2)C[C@@]2(C(=O)OC)CC(C)(C)CC=C12 | i | -0.6 | nt
Cc1ccc2ccc(C(Nc3ccccc3)c3ccc(C(C)C)cc3)c(O)c2n1 (stereo not given) | i | -2.7 | nt
CCc1c(-c2cccc(Cl)c2)ncn1Cc1cccc(-c2ccccc2)c1 | i | 4.4 | nt
COC(=O)C1=CN(c2cccc(OCc3ccccc3)c2)C(N)=C(C#N)C1c1cccc(F)c1 (stereo not given) | i | 17 | nt
Cc1ccc(S(=O)(=O)N2[C@@H](CO)CO[C@H]2CC(=O)c2ccc(F)cc2)cc1 | i | -0.9 | nt
COC(=O)C[C@H]1C=C[C@@H](NC(=O)C2CC2)[C@@H](CO)O1 | i | 5.1 | nt
COc1ccc(NC(=O)C(c2ccc(C(F)(F)F)cc2)n2c(=O)c(-c3cc4ccccc4[nH]3)nc3ccccc32)cc1 (stereo not given) | i | -1.7 | nt
CC1(C(=O)Nc2ccc3c(c2)OCCO3)CN(S(C)(=O)=O)CC(=O)N1Cc1cccc(F)c1 (stereo not given) | i | 0.1 | nt
Cc1ccc(C(=O)N2c3ccccc3N=C(c3ccccc3)C2C(=O)NC(C)C)cc1 (stereo not given) | i | 2.1 | nt
Cc1ccc(OCc2nc3ccccc3n2C(C(=O)Nc2c(C)cccc2C)C2CC2)cc1 (stereo not given) | i | -7.6 | nt

Compound activity (PubChem)
